# LANA-H2B inh: blocks KSHV LANA binding to histone H2A/H2B | Q9QR71 | cell-free LANA-H2A/H2B peptide, fluorescence polarization | inhibition, % (test concentration not listed) | 0.6% of 320,000 active | AID 2629; in the data active = inhibition mostly above about 10%, no sharp cut-off; inactive = mostly below about 6.7%;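 also: stock transfer was 7.5 nL into about 10 µL; 0% = median of vehicle wells and 100% = median of positive control wells; one replicate is shown; the record names a cut of 25% in any replicate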
# T cruzi inh: T. cruzi replication inhibition. T. cruzi beta-gal in NIH3T3, luminescence, 90 h. inhibition, % (test concentration not listed). 1.4% of 300,000 active. AID 1885;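 active = mean inhibition across valid replicates above about 55%, limit read from the data; inconclusive = mean below that limit but half or more replicates reach it; inactive = mean below it, under half of replicates reach it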;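 also: signal also drops with host cell toxicity which is not excluded here; 0% = plate median of DMSO wells and 100% = zero luminescence signal; higher percent means less beta-gal luminescence so fewer parasites; stock transfer was 50 nL into about 50 µL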
# Calb FLC: C. albicans growth modulation with fluconazole | growth inhibition, % (no concentration beside the values) | C. albicans CaCi-2 (fluconazole-resistant clinical isolate) + fluconazole, Alamar Blue growth, 48 h | 0.57% of 300,000 active;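 active = most replicates above 75%; inconclusive = exactly half above 75%; inactive = most below 75%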;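 also: all wells also contain fluconazole at 8 µg/ml as a sub-toxic cotreatment; 0% = median of DMSO wells and 100% = median of geldanamycin control wells; wells of about 8 µL received 7.5 nL stock; the first replicate is given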
# Beta2AR agonist: agonists of human beta-2 adrenergic receptor inducing internalization; 0.43% of 340,000 active; P07550; Am2.2-beta2AR cells, FAP receptor internalization, flow cytometry; reference of the scale not given here; response, % (concentration not given with the values);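 active = response above a set limit, near 3 SD of response in nonfluorescent compounds, cut at about 42% in these data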;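 also: stock transfer was 100 nL into about 11 µL; a reference agonist was the positive control; negative values mostly stem from fluorescent compounds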
# Target sequence (P07550 whole entry, looked up): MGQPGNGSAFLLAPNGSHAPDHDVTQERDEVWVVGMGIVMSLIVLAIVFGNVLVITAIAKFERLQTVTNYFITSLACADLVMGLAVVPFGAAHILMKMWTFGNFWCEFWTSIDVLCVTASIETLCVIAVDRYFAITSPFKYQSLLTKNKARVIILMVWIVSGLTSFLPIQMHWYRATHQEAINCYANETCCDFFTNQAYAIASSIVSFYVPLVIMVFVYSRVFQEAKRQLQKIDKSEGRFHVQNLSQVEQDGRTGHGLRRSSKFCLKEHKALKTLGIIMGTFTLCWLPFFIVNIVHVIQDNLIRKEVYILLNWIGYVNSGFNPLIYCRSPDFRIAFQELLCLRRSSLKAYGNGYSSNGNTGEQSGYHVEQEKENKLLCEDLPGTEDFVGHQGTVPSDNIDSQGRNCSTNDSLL
# ALR H2O2 inh: inhibitors of human sulfhydryl oxidase ALR; 3.8% of 290,000 active; purified ALR, DTT oxidation, H2O2 HRP-luminol luminescence; P55789; AID 485317; inhibition, % (no concentration beside the values);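 active = mean and each replicate at 75% or more; inconclusive = only one of the two met; inactive = neither met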;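 also: stock transfer was 7.5 nL into about 7.5 µL; 0% = neutral wells and 100% = wells with inactivated enzyme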
# Target sequence (P55789 whole entry, looked up): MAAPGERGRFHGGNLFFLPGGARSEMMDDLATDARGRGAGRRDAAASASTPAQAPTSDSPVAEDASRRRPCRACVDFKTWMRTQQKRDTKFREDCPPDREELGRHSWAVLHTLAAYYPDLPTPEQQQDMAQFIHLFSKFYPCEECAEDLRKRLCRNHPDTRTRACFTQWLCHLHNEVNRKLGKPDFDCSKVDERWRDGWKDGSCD
# Ecoli rRNA inh: inhibits bacterial ribosomal RNA function over humanized ribosomes; E. coli WT GFP vs humanized-ribosome RFP mutants, fluorescence, 24 h; hits give low values; DMSO median 0, no signal -100; GFP signal change (wild-type ribosome), % (test concentration not listed); 1.6% of 350,000 active;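 active = significant combined selectivity score with lowered wild-type GFP, culture density cut under 30%, mutant RFP and density less affected; inactive = any of these conditions unmet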; also: one replicate is shown; some compounds called inactive have numbers as strong as hits
# A1 inh: inhibitors of the anti-apoptotic protein A1, read as caspase activation. MEF A1-2A-BIM cells, Caspase-Glo 3/7 luminescence, 3 h; percent of clofoctol response, vehicle zero. caspase activation, % (no concentration beside the values). AID 2462. 0.066% of 330,000 active;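 active = over half of replicate activation scores above 10%, or exactly half above 10 with the replicate mean above 10; inconclusive = replicate mean below 10 yet half the replicates above 10; inactive = over half of replicates below 10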;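 also: wells of about 30 µL received 50 nL stock; many hits fall short of the cut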
# Beta apoptosis: blocks beta cell apoptosis | protection from apoptosis, % (no concentration beside the values) | 0.8% of 300,000 active | INS-1E cytokine-induced death, ATP luminescence, 48 h; percent of positive-control rescue, neutral wells zero;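 active = all replicates at 75% or more, or half of them and the mean; inconclusive = half reach 75% but not the mean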;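 also: 0% = cytokine-treated negative control wells and 100% = positive control rescue; higher means more ATP so stronger rescue from cytokine killing; wells of about 40 µL received 100 nL stock; the first replicate is given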
# Ecoli rRNA inh OD600: recorded beside Ecoli rRNA inh, whose call it bears; OD600 change, %; measured here: OD600 growth;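 optical density of the mix in the first replicate; 0 = DMSO median and -100 = no signal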
# Ecoli rRNA inh RFP: further read-out of Ecoli rRNA inh, marked with its call; RFP signal change, %; measured here: RFP humanized mutant strains;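 first replicate; 0 = DMSO median and -100 = no signal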
# Starred values were filed as active, the others as inactive; ? = inconclusive; / = not tested or not shown. Not all compounds are listed, so the mix of outcomes need not match the whole.
SMILES	Ecoli rRNA inh OD600	LANA-H2B inh	Beta2AR agonist	Ecoli rRNA inh	A1 inh	ALR H2O2 inh	T cruzi inh	Ecoli rRNA inh RFP	Calb FLC	Beta apoptosis
Cc1ccc(CC2CC(=O)N(c3nc4ccccc4s3)C2=O)cc1 (stereo not drawn)	-39.0	6.5	7.2	-27.2	0.7	4.6	4.2	4.5	39.6	-5.3
Cc1[nH]c(=O)[nH]c(=O)c1S(=O)(=O)N1CCC(C(=O)N2CCN(c3cccc(C(F)(F)F)c3)CC2)CC1	0.3	-0.4	-5.0	5.0	-0.8	4.9	2.4	1.7	2.7	-8.9
Cn1c(SCC(=O)NNC(=O)Cc2ccccc2)nnc1-c1ccccc1	/	3.2	2.6	/	0.7	/	-8.8	/	-0.7	-2.5
COc1cc(C(=O)NCCOc2ccccc2C)cc(OC)c1OC	0.6	1.2	0.7	-0.1	-0.6	1.1	-8.9	4.1	1.9	1.7
O=C(COc1ccccc1Cl)NNC(=O)c1cc(S(=O)(=O)N2CCOCC2)ccc1N1CCCC1	-5.7	-0.2	-6.6	-3.9	-0.8	-1.5	-0.9	0.3	-2.5	-8.7
O=C(NCCCO)c1ccc2[nH]c3ccccc3c2c1	/	-7.4	1.2	/	0.3	/	8.8	/	8.6	2.4
Cc1cccc(NC(=O)CS(=O)(=O)Cc2ccccc2)n1	/	1.9	4.0	/	-0.6	1.6	-17.2	/	-5.6	-13.9
COc1ccc(-c2noc(CN(C(=O)c3ccc4c(c3)OCO4)C(C)C)n2)cc1	-13.4	-0.5	9.4	-3.1	-0.1	6.4	5.6	6.8	1.8	2.2
O=C(CNC(=O)C1COc2ccccc2O1)N/N=C\c1ccccc1Cl (stereo not drawn)	6.9	2.4	7.6	16.4	1.7	-2.0	6.2	-0.7	-4.7	-4.4
CC(C)(CO)NCc1c(OCc2ccc(Cl)cc2)ccc2ccccc12	-14.4	3.0	14.7	-20.0	-0.1	-26.2	33.3	-2.7	-6.0	11.5
COC(=O)C/C(N)=C(\C#N)C(=O)OC	6.0	0.8	-5.0	31.1	0.7	0.3	10.7	3.1	40.3	-4.8
O=C(c1ccc(C(F)(F)F)cc1)C1CCCN(C(=O)CCN2CCCO2)C1 (stereo not drawn)	5.4	-1.5	-8.0	8.0	-1.2	0.3	7.1	2.2	-31.7	1.6

# More entries follow:
SMILES	Ecoli rRNA inh OD600	LANA-H2B inh	Beta2AR agonist	Ecoli rRNA inh	A1 inh	ALR H2O2 inh	T cruzi inh	Ecoli rRNA inh RFP	Calb FLC	Beta apoptosis
COc1ccc(CNc2ncccc2[N+](=O)[O-])cc1	0.7	-0.4	6.0	-3.8	-0.6	0.7	15.4	2.8	3.7	-1.4
COCc1ccc(C(=O)N2CCCC(N(C)CCc3ccc(OC)c(OC)c3)C2)s1 (stereo not drawn)	7.0	-3.3	-2.5	6.1	-0.5	-3.1	46.1	-0.2	-0.3	0.3
CCN1C(=O)/C(=C/c2ccc(OC)c(OC)c2)N=C1SCC(=O)NCc1ccco1	10.6	-2.2	7.3	7.0	1.1	2.3	-1.0	0.0	?	-4.6
Fc1ccc(-n2nnc(-c3cccnc3)n2)cc1	9.0	1.0	-5.6	7.7	-6.5	/	-16.4	-0.8	-19.6	-0.8
Cc1cc(NC(=O)COC(=O)c2cc3c(s2)CCC(C)C3)no1 (stereo not drawn)	/	-0.2	6.9	/	0.2	-1.8	-12.5	/	-1.1	-8.9
Nc1cc(N)nc(SCC(=O)NCCC2=CCCCC2)n1	4.9	1.0	6.5	-0.5	-0.1	-4.9	-24.4	0.2	5.7	-5.3
COc1ccc(S(=O)(=O)NNC(=O)c2ccc([N+](=O)[O-])cc2)cc1	6.6	1.1	-4.1	4.7	-0.8	-2.4	6.0	-0.3	8.3	-6.4
C/C(=N\Nc1nncc2ccccc12)c1ccc(Cl)c([N+](=O)[O-])c1	11.9	-2.4	-10.3	5.0	-0.7	7.0	1.9	0.1	-5.6	0.0
O=S(=O)(c1cccc(NC(=S)N2CCN(c3ccccc3)CC2)c1)C(F)F	/	4.6	12.4	/	0.0	/	4.6	/	-21.6	0.6
CCc1ccc(/C=N/NC(=O)c2nnn(-c3nonc3N)c2CN2CCc3ccccc32)cc1	-8.4	-5.1	2.8	-2.7	-1.1	-8.7	3.8	1.5	21.7	/
Cc1ccccc1-n1nc(SCC(=O)O)sc1=S	2.1	1.3	1.5	0.0	-0.2	-3.5	-5.2	5.0	-1.8	-5.4
CC(=O)Nc1nc(C(F)(F)F)cs1	15.1	-0.9	-1.7	8.3	0.4	-0.4	5.4	3.6	-0.1	-6.9

# The list goes on.
SMILES	Ecoli rRNA inh OD600	LANA-H2B inh	Beta2AR agonist	Ecoli rRNA inh	A1 inh	ALR H2O2 inh	T cruzi inh	Ecoli rRNA inh RFP	Calb FLC	Beta apoptosis
COc1ccc(OC)c(-c2nnc3n2N=C(c2ccc(OC(F)F)c(OCC4CC4)c2)CS3)c1	-5.5	2.1	-4.7	-9.0	-2.0	-8.1	/	-19.5	/	-9.5
Cc1cc(C(=O)COC(=O)CN=C2NS(=O)(=O)c3ccccc32)c(C)n1CCc1ccc(Cl)cc1	/	0.1	-3.6	/	0.5	55.6	1.3	/	-3.6	3.5
Cc1ccc2c(c1)N(CC(=O)N1CCCCC1c1cccnc1)C(=O)CO2 (stereo not drawn)	/	0.0	3.8	/	0.1	-0.9	60.8*	/	-14.6	-3.1
O=C(Nc1nnc(-c2ccccc2)o1)c1cc(Cl)sc1Cl	/	0.7	0.2	/	1.1	-22.9	-7.2	/	0.2	-1.1
CCOc1ccccc1/C=C(\C#N)C(=O)Nc1cccc(C(=O)O)c1	8.6	-4.0	22.1	3.6	1.6	7.8	-14.0	11.0	9.6	-5.0
COc1ccc(NC(=O)CN(c2ccc(OC)c(Cl)c2)S(=O)(=O)c2ccccc2)cc1	-8.1	-0.6	5.7	-14.4	-0.8	-3.2	-7.5	1.0	13.0	/
COc1ccc(N2CCN(C(=O)c3ccccc3Br)CC2)c([N+](=O)[O-])c1	-9.7	3.7	-0.3	-16.6	1.5	-3.4	-5.7	4.7	-3.1	1.0
CCCc1nnc(NC(=O)COc2ccc3c(c2)OCO3)s1	11.3	-0.5	-5.6	0.6	-1.1	-1.7	-11.9	-0.9	4.7	-4.8
CCOc1ccc(C2C(C(=O)c3ccc(C)o3)=C(O)C(=O)N2CCCN(CC)CC)cc1 (stereo not drawn)	5.6	1.4	-3.4	7.6	-0.6	-0.2	-11.2	-1.8	-2.6	-6.9
COc1ccc(CC(NC(C)=O)C(=O)NC2CCN(S(=O)(=O)c3ccccc3)CC2)cc1OC (stereo not drawn)	/	1.8	-4.8	/	0.0	2.0	-9.0	/	7.4	-0.9
Cc1ccc(C)c(S(=O)(=O)N2CCN(c3ncccn3)CC2)c1	-19.7	-2.1	8.4	-13.9	0.2	-10.7	3.7	-3.5	4.6	-0.9
NS(=O)(=O)c1cccc(NC(=O)CN2C(=O)C(=O)N(Cc3ccccc3)C2=O)c1	23.6	-2.0	0.1	32.8	-0.7	0.4	/	0.7	/	0.5

# Additional results.
SMILES	Ecoli rRNA inh OD600	LANA-H2B inh	Beta2AR agonist	Ecoli rRNA inh	A1 inh	ALR H2O2 inh	T cruzi inh	Ecoli rRNA inh RFP	Calb FLC	Beta apoptosis
CCCCCCC(=O)N/N=C1\CCCc2ccccc21	11.7	5.6	1.6	4.6	0.2	-7.2	12.6	-5.6	?	8.4
CCN(CC)C(=O)CSc1nc2c(sc(=S)n2-c2ccccc2)c(=O)n1Cc1ccco1	/	6.0	-0.2	/	0.8	60.6	23.6	/	14.5	-1.6
O=C(c1ccccc1NS(=O)(=O)c1ccc(Br)s1)N1CCCC1	/	-0.4	1.6	/	-0.5	5.7	-2.9	/	-11.0	-4.0
CC(C)(C)OC(=O)C[C@@H]1C/C=C\C[C@H](CC(=O)NCCO)C(=O)NC[C@H](c2ccccc2)OC1=O	1.4	8.4	2.9	7.3	0.2	0.2	/	-6.1	/	-4.6
COC(=O)C1CC(=O)N(c2ccc(OCc3ccccc3Cl)cc2)C1 (stereo not drawn)	-18.9	-5.5	14.2	-19.9	1.0	-19.6	7.7	0.2	-2.2	-4.3
COc1cc2c(=O)n(Cc3ccco3)c(=O)n(CC(=O)c3ccc(Br)cc3)c2cc1OC	/	3.2	11.8	/	0.6	-8.9	11.6	/	-25.7	1.6
COc1ccc(S(=O)(=O)N2CCCCC2)cc1NC(=O)C1CSC2(C)CCC(=O)N12 (stereo not drawn)	0.2	1.0	7.5	2.8	0.8	1.7	7.2	2.3	-17.5	-2.2
CCOC(=O)Cc1csc(NC(=O)CCCC(=O)O)n1	-0.1	0.7	-0.3	0.7	0.1	1.4	-15.1	1.0	5.9	-12.3
Cc1ccc(C)c(NC(=O)COC(=O)CCC(=O)c2cccs2)c1	6.7	4.2	4.3	7.8	-0.4	-7.5	-4.0	0.7	-3.8	-3.5
COc1cccc(-c2ccc(SCC(=O)c3ccccc3)nn2)c1	-20.2*	-0.4	2.9	-26.9*	-2.0	-2.5	3.7	-2.8*	4.6	4.6
Cc1cc(O)c2/c(=N\N)c(-c3csc(C)n3)coc2c1	-1.1	-0.9	1.5	5.2	1.4	0.8	2.1	-6.1	5.2	-4.9
O=Cc1cn(-c2ccccc2)nc1-c1ccc2c(c1)OCCO2	/	4.8	-6.4	/	0.0	2.8	/	/	/	-1.5

# Following part.
SMILES	Ecoli rRNA inh OD600	LANA-H2B inh	Beta2AR agonist	Ecoli rRNA inh	A1 inh	ALR H2O2 inh	T cruzi inh	Ecoli rRNA inh RFP	Calb FLC	Beta apoptosis
COc1cc(N2C(=O)c3ccccc3C2=O)c(Cl)cc1C(=O)OCC(=O)N(C)C	10.2	3.7	-1.0	15.6	-0.1	-1.2	-18.2	5.5	5.8	-2.6
CN=C1SC(CC(=O)Nc2cc(Cl)ccc2Cl)C(=O)N1C (stereo not drawn)	/	-2.3	-4.0	/	0.1	-6.5	-1.0	/	-0.1	-6.3
O=C(N/N=C/C=C/c1ccco1)c1cccs1	7.3	-0.6	-5.5	-0.1	-1.1	?	3.4	7.3	0.7	/
CCCNc1c(N)c(=O)oc2ccccc12	-6.8	7.7	-6.4	-5.3	0.3	34.0	-14.4	1.8	9.0	-5.3
COc1cccc(CNC(=O)CN2C(=O)CCSc3ccc(S(=O)(=O)N4CCCC4)cc32)c1	5.1	0.1	3.0	0.3	-0.5	-5.4	2.7	-1.4	-4.2	2.3
N#C/C(C(=O)NCc1ccccc1)=C1/N=C(NC(=O)c2cccs2)c2ccccc21	6.0	3.9	-13.8	12.8	0.3	-0.9	12.7	-2.0	1.6	-3.8
N#Cc1cc(Br)ccc1N=C1CCCN1c1ccccc1	11.8	1.3	-14.3	15.0	-0.3	13.1	-6.1	-2.5	-1.1	-9.2
CCOC(=O)N1CCN(C(=O)c2ccc(Cn3c(=S)[nH]c4cc(C(=O)OC)ccc4c3=O)cc2)CC1	0.4	2.0	-6.1	4.1	0.9	-1.7	-8.1	-1.9	27.3	1.1
COC(=O)c1c(NC(=O)C2CC2)sc2c1CCCC2	-12.4	0.2	-0.8	0.8	0.2	1.6	20.2	-4.9	-8.9	2.4

# Bioassay records: PubChem BioAssay, several laboratories
